MenB inh: Mtb MenB enzyme inhibition; P9WNP5; actives 0.43% (n = 100,000); inhibition, %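 (about 12 µg/mL by stock and volumes)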; AID 540299; MenB enzyme assay, absorbance read-out; some hits fall short of the stated cut;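 active = mean of two replicates above 30%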;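 note: 0% = no compound and 100% = wells with inactive enzyme; the first replicate is given; strong numbers were not always called active; inactives centre near -10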
Target sequence (P9WNP5 whole entry, looked up): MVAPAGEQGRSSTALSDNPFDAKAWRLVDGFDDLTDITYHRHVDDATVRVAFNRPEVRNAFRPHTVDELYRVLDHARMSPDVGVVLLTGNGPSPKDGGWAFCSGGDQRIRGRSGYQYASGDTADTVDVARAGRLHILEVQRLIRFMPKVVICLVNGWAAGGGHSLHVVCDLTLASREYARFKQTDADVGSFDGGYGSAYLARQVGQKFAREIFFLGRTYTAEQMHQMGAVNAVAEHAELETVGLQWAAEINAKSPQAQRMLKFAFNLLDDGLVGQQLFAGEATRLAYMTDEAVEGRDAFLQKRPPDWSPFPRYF
MbtI inh: inhibitors of Mycobacterium tuberculosis siderophore enzyme MbtI. purified MbtI enzyme, fluorescence intensity read-out. AID 493033. inhibition, %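 (about 17 µg/mL by stock and volumes)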. actives 0.89% (n = 100,000). P9WFX0;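 active = above 50% in both replicates, above 80% if mildly self-fluorescent; inactive = the rest, strongly fluorescent compounds included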;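 note: 0% = mean of negative and 100% = mean of positive controls; one replicate is shown; some compounds called inactive have numbers as strong as hits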
PV pol inh: inhibitors of poliovirus RNA polymerase binding and polymerization; P03300; poliovirus polymerase elongation, fluorescence polarization; hits give low values; % elongation, % (compound at 16.7 µg/mL); actives 0.66% (n = 150,000); AID 588519; in the data active = % elongation below about 90%; note: some results filed as inactive read as strong as hits
Target sequence (P03300 1749-2209 limits assumed): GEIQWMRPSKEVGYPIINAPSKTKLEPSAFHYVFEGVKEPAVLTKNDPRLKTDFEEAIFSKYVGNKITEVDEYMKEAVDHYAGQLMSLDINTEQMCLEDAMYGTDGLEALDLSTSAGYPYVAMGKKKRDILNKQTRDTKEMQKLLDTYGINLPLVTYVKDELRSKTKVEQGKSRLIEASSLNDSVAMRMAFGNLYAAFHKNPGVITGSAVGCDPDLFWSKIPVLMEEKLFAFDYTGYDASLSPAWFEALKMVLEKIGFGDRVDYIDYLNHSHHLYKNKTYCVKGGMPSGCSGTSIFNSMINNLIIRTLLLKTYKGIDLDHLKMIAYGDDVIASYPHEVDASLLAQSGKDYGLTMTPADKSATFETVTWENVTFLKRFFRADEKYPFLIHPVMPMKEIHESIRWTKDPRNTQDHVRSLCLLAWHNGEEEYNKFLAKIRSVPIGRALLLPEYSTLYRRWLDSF
PV pol inh intensity: recorded beside PV pol inh, whose call it bears; % elongation; measured here: total intensity read-out; formula for this scale not given here;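 total fluorescence in place of polarization; lower means less elongation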
* = called active by the depositor; i = inactive; / = not tested or not shown.

SMILES	MenB inh	MbtI inh	PV pol inh	PV pol inh intensity
CCCC(=O)NCc1ccccc1	4	/	98	103
COc1ccccc1C1/C(=C(\O)c2ccc(Cl)cc2)C(=O)C(=O)N1CCC(=O)O (stereo unspecified)	5	19	100	101
Cc1c(Cc2ccccc2)sc(/N=C/c2ccc3ccccc3c2)c1C(N)=O	4	/	98	98
COc1ccc(C)cc1NCC(=O)NC1CCCCC1	-14	-11	/	/
Cn1c(C(C#N)C(=O)C2CCCCC2)nc2ccccc21 (stereo unspecified)	/	i	100	98
O=C(CCC1CCCC1)Nc1noc2ccccc12	-10	-14	103	105
CN1C(=O)/C(=C/c2ccc(O)cc2)SC1=Nc1ccc(Cl)cc1	-44	-20	103	103
Cc1ccc(CNC(=O)CCCc2nnc3n4nc(C)nc4c4ccccc4n23)cc1	-7	-1	97	96
O=S(=O)(Nc1nc2ccc(Cl)cc2s1)c1cccs1	-22	4	109	106
CC(=O)Nc1ccc2sc(NC(=O)CN3CCOCC3)nc2c1	5	20	103	103
CCOC(=O)C1C(=O)NC23CCCCC2C1c1cc(OC)ccc1O3 (stereo unspecified)	-1	-5	100	103
COc1ccc(NC(C)=O)cc1NC(=O)c1cncn1-c1ccc(F)cc1	-1	-3	101	108
COC(=O)C1CCN(C(=O)COc2ncnc3c(Cl)cc(Cl)cc23)CC1	0	-8	103	101
Nc1cccc2c1C(=O)N(CC(=O)NC1CCCc3ccccc31)C2=O (stereo unspecified)	-23	-5	102	114
Cc1nc(-c2ccccc2)sc1-c1nnc(-c2ccc(C(F)(F)F)cc2)o1	-2	-39	98	98
COc1ccc(OCC(O)CNC(=O)Nc2cc(C)cc(C)c2)cc1 (stereo unspecified)	4	9	100	101
CCOC(=O)c1[nH]c(=O)[nH]c1CSc1ccccn1	-6	91*	100	102
CC(C)Cn1[nH]c(CC(=O)O)cc1=O	-65	7	103	105
O=S(=O)(c1ccc(N2CN(S(=O)(=O)c3ccc(Cl)cc3)c3nc4ccccc4nc32)cc1)N1CCOCC1	1	-50	103	108
Cc1nc2sc3c(c2c(-c2cccs2)c1C(N)=O)CCCC3	-8	15	103	113
CSc1nnc(-c2ccc(C(C)(C)C)cc2)n1C	2	-11	103	108
CN(C(=O)CN1CCOCC1)C1(c2ccccc2Cl)CCCCC1=O (stereo unspecified)	-18	2	103	106
N/C(=N\O)c1cccc(/C(N)=N/O)n1	47*	/	113	116
O=C(Nc1ccc(Cl)cc1)c1ccc2ncsc2c1	-13	-9	104	109
CC(C)CC(NC(N)=O)C(=O)O (stereo unspecified)	11	-14	98	99

The last 6 entries of the section above lead into the next:
SMILES	MenB inh	MbtI inh	PV pol inh	PV pol inh intensity
Cc1nc2sc3c(c2c(-c2cccs2)c1C(N)=O)CCCC3	-8	15	103	113
CSc1nnc(-c2ccc(C(C)(C)C)cc2)n1C	2	-11	103	108
CN(C(=O)CN1CCOCC1)C1(c2ccccc2Cl)CCCCC1=O (stereo unspecified)	-18	2	103	106
N/C(=N\O)c1cccc(/C(N)=N/O)n1	47*	/	113	116
O=C(Nc1ccc(Cl)cc1)c1ccc2ncsc2c1	-13	-9	104	109
CC(C)CC(NC(N)=O)C(=O)O (stereo unspecified)	11	-14	98	99
CS(=O)(=O)N1CCN(C(=S)NCc2ccc(F)cc2)CC1	-1	-18	100	103
CSc1ccc(S(=O)(=O)NC2CCCC2)cc1	2	-5	101	105
O=C(NCCN1CCCCCC1)c1cnn2c(C(F)(F)F)cc(-c3ccccc3)nc12	-18	-7	104	107
Cc1ccc2nc(COC(=O)c3ccc(-n4cnnn4)cc3)cc(=O)n2c1	5	-3	103	105
O=c1/c(=C/c2ccccc2)sc2nc(-c3ccccc3)nn12	-8	-15	101	106
CCOC(=O)C1=C(C)NC(C)=C2C(=O)Oc3ccccc3C12 (stereo unspecified)	-12	8	102	103
Cc1ccccc1NC(=O)CC1SC(=O)N(c2ccccc2)C1=O (stereo unspecified)	15	-1	102	100
CCn1c(NCCSc2nc3ccccc3n2C)nc2ccccc21	-21	1	100	96
Cn1c(C(=O)N(Cc2ccccc2)C(C)(C)C)cc2sccc21	-30	-4	107	102
OC(CN1CCCC1)Cn1ccc2ccccc21 (stereo unspecified)	-20	-6	103	99
CN1CCC(N(C)CC2=CCC3CC2C3(C)C)CC1 (stereo unspecified)	-10	-5	100	101
O=C(CSc1nc2ccccc2o1)c1ccccc1	18	/	106	107
NCC1CCN(Cc2ccccc2)C1 (stereo unspecified)	28*	34	103	104
CCc1ccc(NCc2cccc3c2CN(CC)C3)cc1	-3	-16	103	107
COC(=O)c1cc(S(=O)(=O)N(C)c2cccc(C)c2)cn1C	-11	-14	104	101
CCOc1ccc(C(=O)Nc2cccc(-c3ccc4nncn4n3)c2)cc1	12	15	102	102
CC1CCCCN1C(=O)CSc1nnc(CNc2ccc(Cl)cc2)o1 (stereo unspecified)	9	5	101	102
CC(C)(C)C1(C)OC(=O)C(=Cc2ccc3c(c2)OCO3)C(=O)O1 (stereo unspecified)	6	2	99	99
CCOc1ccc(-n2c(-c3ccco3)nc3c(cnn3-c3ccc(Cl)cc3)c2=O)cc1	3	-2	100	102
CC(C(=O)N1CCCC1)N1c2cccc3cccc(c23)S1(=O)=O (stereo unspecified)	-27	-5	96	91
OCCCN=Cc1ccc(Cl)cc1Cl	-74	-11	100	102
CCN(CC)C(=O)c1sc2ncn(CC(=O)Nc3cccc(C(F)(F)F)c3)c(=O)c2c1C	-27	-15	102	108
COC1OC2COC(c3ccccc3)OC2CC1O (stereo unspecified)	-18	/	108	111
CC(=O)NC(=O)/C(C#N)=C/N1CCN(Cc2ccccc2)CC1	10	31	102	100
CC(C)Nc1nc(N2CCCC2)nc(N2CC3CC(C2)c2cccc(=O)n2C3)n1 (stereo unspecified)	-13	/	106	117
Next part
SMILES	MenB inh	MbtI inh	PV pol inh	PV pol inh intensity
CCCN1C(=O)CC(C(=O)OC)=C1C	-34	14	102	104
CCc1ccc(Oc2coc3cc(OC(=O)C(C)C)ccc3c2=O)cc1	1	1	104	97
COc1cc(-c2nn3c(-c4ccc(C(C)(C)C)cc4)nnc3s2)cc(OC)c1OC	-30	10	96	97
O=C(NCCc1nc2ccccc2[nH]1)C1COc2ccccc2O1 (stereo unspecified)	3	/	107	107
COc1ccccc1-c1[nH]ncc1CNC1CCCCC1	8	-10	101	103
COc1ccc(C)cc1NC(=O)CN(C)Cc1nc2ccccc2c(=O)[nH]1	-38	10	89*	90*
CCOC(=O)c1oc2cc(O)c(CC)cc2c(=O)c1-c1cscn1	-54	8	104	99
COc1cc(/C=N/NS(=O)(=O)c2ccc(Br)cc2)cc(OC)c1O	-44	22	104	109
CCCCOCC1CN(c2ccccc2)C(=O)CS1 (stereo unspecified)	-5	2	102	104
O=C(COc1ncnc2ccccc12)NC1CCCC1	-2	16	95	96
O=C(Nc1cccc(F)c1)C1CCN(c2ncnc3c2sc2cccc(F)c23)CC1	-25	24	101	106
COc1ccc(NC(=O)C2CCCO2)c(OC)c1 (stereo unspecified)	-2	/	107	111
CC(C)Oc1ccc(CNC(=O)C2CCCCC2)cc1	-20	-3	100	101
Fc1ccc(Nc2nc3ccc(F)cc3s2)cc1	-3	-6	99	101
CCOC(=O)C(C(=O)c1ccccc1)C1(O)C(=O)c2ccccc2C1=O (stereo unspecified)	5	4	46*	56*
Cc1nc2cc(C(=O)O)ccc2n1-c1ccccc1	/	10	102	102
COC(=O)Cc1cnc(NC(=O)CSc2nc(C(C)C)cc(=O)[nH]2)s1	-54	1	/	/
CCOCC(=O)Nc1cc(C)cc(C)c1	-13	-4	103	104
O=C(c1cc2c(=O)[nH]c3ccccc3c2s1)N1CCCC1	-1	31	102	109
CCn1c(C(=O)N2CCCC(C(=O)NC3CCCC(C)C3C)C2)cc2sccc21 (stereo unspecified)	8	4	101	99
COc1ccc(Cl)cc1NC(=O)CN(C(=O)c1ccccc1)C1CCCCC1	-21	/	104	104
O=C(Nc1ccc(N2CCOCC2)cc1)c1oc2ccccc2c1CSc1ncn[nH]1	-30	-5	/	/
CN1CCN(Cc2c(O)ccc3cc(-c4nc5ccccc5n4C)c(=O)oc23)CC1	-166	53	100	111
COC(=O)c1ccc(NC(=O)CCc2ccccc2)cc1	/	-11	103	107
CCOC(=O)c1sc(N)c(C#N)c1CSC1=N/C(=C\c2ccco2)C(=O)N1c1ccc(OC(F)F)cc1	-41	11	140	134

Reformatted bar-delimited: part of the list above.
canonical_smiles | MenB inh | MbtI inh | PV pol inh | PV pol inh intensity
Fc1ccc(Nc2nc3ccc(F)cc3s2)cc1 | -3 | -6 | 99 | 101
CCc1ccc(Oc2coc3cc(OC(=O)C(C)C)ccc3c2=O)cc1 | 1 | 1 | 104 | 97
COc1ccc(C)cc1NC(=O)CN(C)Cc1nc2ccccc2c(=O)[nH]1 | -38 | 10 | 89* | 90*

Additional records:
SMILES	MenB inh	MbtI inh	PV pol inh	PV pol inh intensity
O=c1cc(CSc2ncn[nH]2)nc2sccn12	0	5	102	103
COC(=O)CN(C)C(=O)c1cc(OC)c(OC)c(OC)c1	-13	-26	103	105
COc1nsc(Br)c1C#N	-5	/	105	110
Cc1ccc(-c2ncnn2-c2sc3c(c2C#N)CCCCC3)cc1	11	-2	101	103
Cc1ccccc1COC(=O)C1CCN(S(=O)(=O)c2ccc3c(c2)OCCO3)CC1	-21	-6	106	108
CCOC(=O)C1CCN(C(=O)/C=C/c2c(Cl)nc3sccn23)CC1	-8	3	102	106
CCc1n[nH]c(=S)n1/N=C/C(C)=C\c1ccccc1	-27	40	100	103
Cc1ccc(C)c(-c2csc(N)c2C#N)c1	-2	/	101	95
CCCS(=O)(=O)N1CCC(C(=O)NCc2ccc(F)cc2)CC1	-15	-17	102	104
NS(=O)(=O)c1ccc(NC(=O)Cn2cc(C(F)(F)F)ccc2=O)cc1	-12	6	100	108
CC(C)(C)C(=O)COC(=O)c1cc(-c2ccccc2)nc2ccccc12	/	-9	101	106
N#CCCSc1nnc2c(Cl)cc(Cl)cn12	-16	6	103	100
CCN(CC(=O)NCc1ccc(F)cc1)Cc1cc(=O)n2ccsc2n1	0	5	105	100
Cc1ccc(CNC(=O)c2ccc(OCC(C)C)cc2)n1C	-60	7	/	/
N#Cc1ccccc1Cn1c(=O)n(-c2ccccc2)c(=O)c2ccc(C(=O)NCc3ccco3)cc21	-17	-11	100	103
CN(C)c1ncnc(Cl)c1N	1	17	102	103
O=C(c1cc2ccccc2cc1O)N1CCCCCC1	-33	-28	101	103
COc1ccc2oc3nc(=O)c4ccccc4c-3cc2c1	-30	-12	97	104
Cc1ccc(-c2cc(C(F)(F)F)n3ncc(C(=O)OC(C)C)c3n2)cc1	-24	-9	104	107
Cn1c(C(=O)NC2CCCC2)cc2c(=O)n(C)c3ccccc3c21	1	8	100	102
c1ccc(CCNC2=NCCS2)cc1	/	-3	102	103
Cc1ccc(CNC(=O)c2c[nH]n3c(=O)cc(CSc4ccc(Cl)cc4)nc23)cc1	-41	4	100	102
CCc1ccc2[nH]c(=O)c(CN(Cc3ccco3)C(=S)NCC(C)C)cc2c1	4	31	103	104
O=C(O)CNC(=S)N(Cc1ccco1)Cc1ccccc1Cl	4	-2	100	103
O=C(N1CCN(c2ccccc2)CC1)C12CC3CC(CC(C3)C1)C2	-19	/	107	115

3 entries from above, with values under each structure:
Results follow in this order: MenB inh, MbtI inh, PV pol inh, PV pol inh intensity
- COc1nsc(Br)c1C#N
    -5, /, 105, 110
- Cc1ccc(-c2ncnn2-c2sc3c(c2C#N)CCCCC3)cc1
    11, -2, 101, 103
- Cc1ccccc1COC(=O)C1CCN(S(=O)(=O)c2ccc3c(c2)OCCO3)CC1
    -21, -6, 106, 108

(continued)
SMILES	MenB inh	MbtI inh	PV pol inh	PV pol inh intensity
CN(C1CCCCC1)S(=O)(=O)Cc1ccccc1	-21	75	104	99
O=c1nc2n(c3ccsc13)CC(O)=C2c1nc2ccccc2[nH]1	-31	8	111	132
COc1ccc(NC(=O)C2C3C4CCC(C4)C23)cc1 (stereo unspecified)	5	/	101	97
C=CC[n+]1c2n(c3ccc(F)c(F)c31)CCCCC2	/	-5	101	106
CCOC(=O)c1sc2nc(CSc3ccccc3)nc(Nc3ccn(C)n3)c2c1C	-9	-8	107	111
Cc1oc(N)c(C#N)c1C	-14	6	91	114
O=C(Nc1ccc2c(c1)oc1ccccc12)c1cccc(N2C(=O)CCC2=O)c1	-4	-120	104	101
O=C(CSCc1cnn(-c2ccccc2)c1-n1cccc1)NC1CCCCCC1	4	-7	100	103
CCC1CCCCN1C(=O)c1ccccc1F (stereo unspecified)	-7	-18	104	103
C=CCSc1nnc2n1CCCN2C(=O)Nc1cccc(Cl)c1	-2	-14	106	109
COc1ccc(S(=O)(=O)N2CN3CCN(C3)C2)cc1OC	-29	-9	107	103
N=C1SC2CS(=O)(=O)CC2N1c1cccc(C(F)(F)F)c1 (stereo unspecified)	0	1	105	99
Cc1csc2ncnc(N3CCN(C(=S)NCC4CC4)CC3)c12	-5	36	88*	94*
O=C(CSc1nnc(-c2ccco2)c(-c2ccco2)n1)N1c2ccccc2Sc2ccc(Cl)cc21	33*	44	101	101
COC(=O)c1ccc2c(=O)n3nc(NCc4ccccc4)sc3nc2c1	1	31	101	101
c1ccc2[nH]c(C3CCN(CC4OCCO4)CC3)nc2c1	-17	-9	102	109
O=C(CSc1ncnc2c1cnn2-c1ccccc1)c1ccccc1	9	0	100	102
CCSc1nc2c(c(=O)[nH]1)C1(CCCC1)Cc1ccccc1-2	3	11	100	95
COc1ccc(-n2c(CNc3ccccc3Cl)nnc2SCC(N)=O)cc1	24	-4	98	101
c1ccc2c(c1)Oc1ccccc1S2	-19	-2	103	102
O=c1ccoc2ccc(Cl)cc12	16	2	98	101
N#CCc1csc(-c2ccccc2)n1	6	18	105	110

Bioassay records (PubChem)
